Screens: PubChem BioAssay, National Center for Advancing Translational Sciences (NCATS)
Lassa entry inh – blocks Lassa virus binding to or entry into cells | AID 540256 | Lassa virus pseudotype entry inhibition, cell reporter; control for the full effect not named in the record | 1.2% of 300,000 active | Potency, µM (doses to about 37.9 µM), for inactives: at the highest dose activity change, negative = inhibition, actives largely listed as inhibitors; active means well fitted inhibition curve with a large enough effect; inconclusive means small, poorly fitted or top-dose-only effect, or effect the other way; inactive means flat fitted curve, though single readings scatter; tested in HEK293 cells; also: % is scaled to controls: 0 for no effect and ±100 for the full control effect; nearly all actives have a fitted effect of over 50% in size; luciferase read-out
Cruzain inh Det – inhibitors of Trypanosoma cruzi cruzain with detergent; P25779; purified cruzain, Z-FR-AMC fluorescence, 0.01% Triton; Potency, µM, inactives show max response, negative = inhibition, hits mostly inhibitors; 0.43% of 200,000 active;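 also: plate controls were neutral wells for no effect and buffer without enzyme for full effect; nearly all actives have a fitted effect of over 40% in size; top concentration of the series not given in the record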
Target sequence (P25779 123-467 limits assumed): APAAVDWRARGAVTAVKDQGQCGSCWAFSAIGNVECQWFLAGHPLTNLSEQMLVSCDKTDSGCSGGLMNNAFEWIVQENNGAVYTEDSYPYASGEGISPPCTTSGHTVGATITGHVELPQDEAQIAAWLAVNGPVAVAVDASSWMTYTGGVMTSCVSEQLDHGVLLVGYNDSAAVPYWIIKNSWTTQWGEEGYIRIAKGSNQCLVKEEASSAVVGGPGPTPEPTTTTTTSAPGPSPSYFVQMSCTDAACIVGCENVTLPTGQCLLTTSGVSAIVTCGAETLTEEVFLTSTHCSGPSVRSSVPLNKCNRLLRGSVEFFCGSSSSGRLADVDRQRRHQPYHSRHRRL
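Detergent-containing run (0.01% Triton X-100) in acetate buffer pH 5.5 with 5 mM DTT: enzyme at 1.5 nM final, 15 min compound preincubation at room temperature, then 2 uM Z-FR-AMC substrate. Activity taken as 60 s fluorescence increase at 360/450 nm.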
MARV entry inh – blocks Marburg virus binding to or entry into cells; Marburg virus pseudotyped entry inhibition, cell reporter; control for the full effect not named in the record; about a third of the inactives were read at about 46 µM; Potency, µM (doses to about 37.8 µM), for inactives: top-dose activity change, negative = inhibition, most hits filed as inhibitors; 1.8% of 300,000 active; AID 540276; active = well fitted inhibition curve with a large enough effect; inconclusive = small, poorly fitted or top-dose-only effect, or effect the other way; inactive = flat fitted curve, though single readings scatter; tested in HEK293 cells; about a fifth of its hits are not listed in these tables; also: % is scaled to controls: 0 for no effect and ±100 for the full control effect; luciferase read-out
2A StopGo – lowers the luciferase signal of an FMDV 2A StopGo reporter; human cells with a luciferase reporter of 2A StopGo recoding; control for the full effect not named in the record; 1.2% of 410,000 active; Potency, µM (titrated, usually from 57.9 µM), for the others: at the top dose signal change, negative = less light; active = well fitted falling curve with a large enough effect; inconclusive = small, poorly fitted or top-dose-only effect; inactive = no such curve, though single readings can be large or run the other way; tested in HEK293T cells; also: % is scaled to controls: 0 for no effect and ±100 for the full control effect; nearly all actives have a fitted effect of over 45% in size; luciferase light after 4 h
Cruzain inh noDet – inhibitors of Trypanosoma cruzi cruzain without detergent. P25779. purified cruzain, Z-FR-AMC fluorescence, no detergent. Potency, µM, inactives show max response, negative = inhibition, most hits filed as inhibitors. 2.3% of 200,000 active;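 also: plate controls were enzyme without inhibitor for no effect and buffer without enzyme for full effect; nearly all actives have a fitted effect of over 40% in size; top concentration of the series not given in the record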
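Detergent-free condition (0.00005% Triton X-100) in acetate buffer pH 5.5 with DTT. 1.5 nM enzyme and compound were pre-mixed 15 min, then 2 uM Z-FR-AMC substrate added; reaction progress from fluorescence change between first and third reads (60 s).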
NS1 inh – inhibitors of influenza NS1 protein function; S. cerevisiae slowed by influenza A NS1, growth recovery by OD600; Potency, µM (highest dose often 46.1 µM), inactives show at the top dose activity, positive = more growth; 0.4% of 270,000 active; active means well fitted rising curve with a large enough effect; inconclusive means small, poorly fitted or top-dose-only effect; inactive means no such curve, though single readings can be large or run the other way; also: nearly all actives have a fitted effect of over 50% in size
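Recovery from NS1-induced slow growth read by OD600 in budding yeast switched to galactose assay medium (pH 6.0, -URA) at 1:100 dilution. Compound 23 nl per well; the matching strain lacking NS1 serves as control.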
RE007 growth inh – less growth of the S. pombe RE007 Vpr strain. Potency, µM (doses to about 92.2 µM), inactives show at the highest dose activity change, negative = less growth. AID 651644. 0.21% of 360,000 active. S. pombe RE007 Vpr strain, BacTiter-Glo ATP luminescence, 24 h; control for the full effect not named in the record; active = well fitted falling curve with a large enough effect; inconclusive = small, poorly fitted or top-dose-only effect; inactive = no such curve, though single readings can be large or run the other way;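 also: % is scaled to controls: 0 for no effect and ±100 for the full control effect; nearly all actives have a fitted effect of over 50% in size; the assay follows cell death caused by Vpr and the record does not say whether a fall means rescue or toxicity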
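Fission yeast RE007 carrying one integrated HIV-1 vpr copy, seeded at OD 0.01 in PMG+AL medium with 23 nL pinned compound. Grown 24 h at 30 degrees; viability read by BacTiter-Glo luminescence after 5 min.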
SARS PLP yeast – SARS-CoV PLP inhibition in yeast; S. cerevisiae expressing SARS-CoV PLpro, growth rescue; control for the full effect not named in the record; 0.19% of 330,000 active; Potency, µM (top dose mostly 32.9 µM), without a hit: at the highest dose activity, positive = growth rescue; active means well fitted rising curve with a large enough effect; inconclusive means small, poorly fitted or top-dose-only effect; inactive means no such curve, though single readings can be large or run the other way; also: 0% is about no effect; nearly all actives have a fitted effect of over 55% in size; growth read by luminescence after 48 h
Starred values were filed as active, the others as inactive; [ ] = remark or other dose. Unless noted, calls follow the shape of the dose curve; as a rule, active = well fitted curve in the direction sought with a large enough effect; inconclusive = small, poorly fitted or top-dose-only effect, or another doubt; inactive = no such curve, though single readings can be large; an effect the other way counts as inactive or inconclusive. Potency is read from the fitted curve at half-maximal effect.

What do the screens show for `COc1ccc(-c2csc(N(CC3CCCO3)C(=O)c3ccc(C)cc3)n2)cc1` (stereo not given)?
Lassa entry inh: inconclusive; Cruzain inh Det: -3.9%; MARV entry inh: inconclusive; 2A StopGo: inconclusive; Cruzain inh noDet: 20µM*; NS1 inh: 6%; RE007 growth inh: -10%; SARS PLP yeast: 2%

How did O=C(O)COc1ccc(S(=O)(=O)N2CCCC2)cc1 do in these assays?
2A StopGo: -7%; NS1 inh: 14%; RE007 growth inh: 0%; SARS PLP yeast: -8%

What do the screens show for `CCN(CC)CCN(Cc1cc2cc3c(cc2[nH]c1=O)OCCO3)C(=S)NC`?
2A StopGo: 3%; NS1 inh: -8%; RE007 growth inh: -3%; SARS PLP yeast: -3%

How did COc1ccc(OCc2cccc(C(=O)Nc3cc(C)on3)c2)cc1 do in these assays?
Lassa entry inh: inconclusive; Cruzain inh Det: -4.0%; MARV entry inh: 5.8µM*; 2A StopGo: -67%; Cruzain inh noDet: 3%; NS1 inh: 0%; RE007 growth inh: -5%; SARS PLP yeast: 4%

What do the screens show for `Cc1ccc(NC(=O)c2cnc(SCC(=O)NCC3CCCO3)n(C)c2=O)cc1C` (stereo not given)?
Lassa entry inh: inconclusive; MARV entry inh: 6%; 2A StopGo: inconclusive; RE007 growth inh: -11%; SARS PLP yeast: 2%

What do the screens show for `O=C(CSc1nnc(-c2ccc3c(c2)OCCO3)o1)NC1CCCCC1`?
Cruzain inh Det: 1.6%; Cruzain inh noDet: 2%; NS1 inh: -5%; SARS PLP yeast: inconclusive

Results for Cc1ccc(S(=O)(=O)NCC(=O)N2CCC(C)CC2)cc1 ?
Cruzain inh Det: 0.2%; 2A StopGo: -12%; Cruzain inh noDet: 12%; NS1 inh: -4%; RE007 growth inh: 10%; SARS PLP yeast: -3%

Results for COc1cnc(-c2ccccc2)c(-c2ccccc2)n1 ?
Lassa entry inh: 2%; MARV entry inh: -1%[46.1 µM]; 2A StopGo: -15%; RE007 growth inh: 10%

What do the screens show for `CC(C(=O)NCCN1CCOCC1)c1ccc([N+](=O)[O-])cc1` (stereo not given)?
Lassa entry inh: -3%; Cruzain inh Det: -0.6%; MARV entry inh: -1%; 2A StopGo: -6%; Cruzain inh noDet: 3%; NS1 inh: 2%; RE007 growth inh: 5%; SARS PLP yeast: -3%

Results for COc1cc(NC(=O)c2cccs2)c(OC)cc1NC(=O)CCC(=O)Nc1ccc2ncccc2c1 ?
Lassa entry inh: -13%; MARV entry inh: inconclusive; 2A StopGo: inconclusive; NS1 inh: 11%; RE007 growth inh: 0%; SARS PLP yeast: 0%

What do the screens show for `COc1ccc(C2=COc3ccccc3C(=O)N2)cc1`?
Lassa entry inh: 12%; MARV entry inh: inconclusive; 2A StopGo: 33%[activator]; RE007 growth inh: -24%; SARS PLP yeast: -7%

What do the screens show for `CCN1CCN(C(=O)CN(CC)S(=O)(=O)c2ccc(Cl)cc2)CC1`?
Lassa entry inh: -2%; Cruzain inh Det: 4.6%; MARV entry inh: 20%; 2A StopGo: -1%; Cruzain inh noDet: -3%; NS1 inh: -4%; RE007 growth inh: -3%

How did COc1c(N)c2ccccc2[nH]c1=O do in these assays?
Lassa entry inh: -21%; Cruzain inh Det: -4.0%; MARV entry inh: 13%; 2A StopGo: -7%; Cruzain inh noDet: -3%; NS1 inh: 6%; RE007 growth inh: 24%; SARS PLP yeast: 2%

What do the screens show for `O=C(Nc1nc(-c2ccc(S(=O)(=O)N3CCCC3)cc2)cs1)C1COc2ccccc2O1` (stereo not given)?
Lassa entry inh: inconclusive; Cruzain inh Det: 1.5%; MARV entry inh: inconclusive; 2A StopGo: inconclusive; Cruzain inh noDet: 10µM*; NS1 inh: 7.9µM*; RE007 growth inh: -8%; SARS PLP yeast: 3%

How did Cc1cccc(NC(=O)Cn2c(=O)n(CC3CCC(C(=O)NCCc4ccccc4)CC3)c(=O)c3ccccc32)c1 (stereo not given) do in these assays?
Lassa entry inh: inconclusive; Cruzain inh Det: -0.4%; MARV entry inh: 13%[46.1 µM]; 2A StopGo: -8%; Cruzain inh noDet: -11%

How did COc1cc(C(c2c(C)[nH][nH]c2=O)c2c(C)[nH][nH]c2=O)ccc1OCc1ccc([N+](=O)[O-])cc1 do in these assays?
Lassa entry inh: 27%; Cruzain inh Det: -5.5%; MARV entry inh: inconclusive; 2A StopGo: 0%; Cruzain inh noDet: -13%; NS1 inh: 13%; RE007 growth inh: 3%; SARS PLP yeast: -1%

What do the screens show for `CCc1ccc(NC(=O)Cn2nc(C)c([N+](=O)[O-])c2C)cc1`?
2A StopGo: 10%; NS1 inh: -1%; RE007 growth inh: 1%; SARS PLP yeast: 0%

Results for COc1cc2c(cc1O)CC[C@@H]1[C@@H]2CC[C@]2(C)[C@@H](O)CC[C@@H]12 ?
Lassa entry inh: inconclusive; MARV entry inh: -14%; 2A StopGo: -21%; NS1 inh: -9%; RE007 growth inh: 9%[18.4 µM]; SARS PLP yeast: -7%

How did CCN(CC)CCNCc1cc(Br)ccc1OCC(=O)NCc1ccccc1 do in these assays?
Lassa entry inh: -17%; MARV entry inh: inconclusive; 2A StopGo: -8%; NS1 inh: 5%; RE007 growth inh: -14%; SARS PLP yeast: 0%

Results for CCC(=NCCc1c[nH]c2ccccc12)c1c(O)n(C)c(=O)n(C)c1=O ?
Lassa entry inh: inconclusive; Cruzain inh Det: -5.2%; MARV entry inh: inconclusive; 2A StopGo: 16µM*; Cruzain inh noDet: inconclusive; NS1 inh: -8%; RE007 growth inh: -12%; SARS PLP yeast: 19%

Results for CC1(C(=O)O)COC(c2ccc([N+](=O)[O-])cc2)OC1 (stereo not given) ?
Lassa entry inh: -3%; Cruzain inh Det: 1.6%; MARV entry inh: 17%; 2A StopGo: 9%; Cruzain inh noDet: -10%; NS1 inh: 1%; RE007 growth inh: 20%; SARS PLP yeast: 0%

Results for CC(=O)NN1C(=O)/C(=C\c2ccc(O)cc2)SC1=S ?
Lassa entry inh: -13%[46.1 µM]; MARV entry inh: 3%[46.1 µM]; 2A StopGo: 15%; NS1 inh: 6%; RE007 growth inh: inconclusive; SARS PLP yeast: -1%

How did O=C(NCCCN1CCOCC1)c1cc(-c2ccco2)nc2ccccc12 do in these assays?
Lassa entry inh: 24%; MARV entry inh: -22%; 2A StopGo: -24%; RE007 growth inh: -1%; SARS PLP yeast: 7%

What do the screens show for `C=CCN1c2ccccc2[C@]23C[C@@H](C(=O)OC)N(C(C)=O)C2=NC(C(=O)OC)=C(C(=O)OC)[C@H]13`?
2A StopGo: -2%; NS1 inh: -4%; RE007 growth inh: -2%; SARS PLP yeast: 3%

What do the screens show for `CCN(CC(=O)Nc1ccc(C)c(F)c1)CC(=O)NC(C)C`?
Lassa entry inh: 18%; MARV entry inh: -4%[46.1 µM]; 2A StopGo: 9%; RE007 growth inh: 21%; SARS PLP yeast: 1%

How did Cc1ccc(NC(=O)CSCC(=O)N(C)Cc2ccc(Cl)c(Cl)c2)cc1 do in these assays?
Lassa entry inh: -9%; MARV entry inh: -16%; 2A StopGo: -8%; RE007 growth inh: 39%; SARS PLP yeast: -8%

Results for O=C(COC(=O)c1c2ccccc2cc2ccccc12)Nc1ncc(C(F)(F)F)cc1Cl ?
Lassa entry inh: -37%; Cruzain inh Det: -1.4%; MARV entry inh: 1%; 2A StopGo: -15%; Cruzain inh noDet: inconclusive; NS1 inh: 6%; RE007 growth inh: 4%; SARS PLP yeast: 3%

Results for Cc1ccc(-c2ccc(=O)n(CC(=O)Nc3cccc(C(=O)N4CCN(C)CC4)c3)n2)cc1 ?
Lassa entry inh: -3%; Cruzain inh Det: -2.5%; MARV entry inh: inconclusive; 2A StopGo: -22%; Cruzain inh noDet: 10%; NS1 inh: 5%; RE007 growth inh: 0%; SARS PLP yeast: 9%

Results for Cc1ccc(S(=O)(=O)N(C)C)cc1NC(=O)Nc1ccccc1F ?
Lassa entry inh: 8%[46.1 µM]; MARV entry inh: -23%[46.1 µM]; 2A StopGo: -9%; NS1 inh: 3%; RE007 growth inh: 1%; SARS PLP yeast: 1%

Results for CCN(CC)C(=O)CN(C)S(=O)(=O)c1cccc2nsnc12 ?
Lassa entry inh: -8%; Cruzain inh Det: 1.8%; MARV entry inh: 12%; 2A StopGo: -22%; Cruzain inh noDet: -7%; NS1 inh: -8%; RE007 growth inh: 13%; SARS PLP yeast: -3%

Results for C=CCN1CCN(C(=O)CSc2ccccc2)CC1 ?
2A StopGo: 60%[activator]; NS1 inh: -18%; RE007 growth inh: 6%; SARS PLP yeast: 1%

How did CC(C)NC(=O)CC(=O)N/N=C/c1ccccc1F do in these assays?
Lassa entry inh: 11%; Cruzain inh Det: 0.5%; MARV entry inh: 6%; 2A StopGo: -3%; Cruzain inh noDet: -4%; NS1 inh: 14%; RE007 growth inh: 11%; SARS PLP yeast: -2%

How did O=C(CSc1cn(CCNC(=O)c2ccc3ccccc3c2)c2ccccc12)NCc1ccco1 do in these assays?
Cruzain inh Det: -10%; 2A StopGo: inconclusive; Cruzain inh noDet: inconclusive; NS1 inh: 18%; RE007 growth inh: -2%; SARS PLP yeast: -1%

Results for COCCNS(=O)(=O)c1ccc2c(c1)Cc1cc(S(=O)(=O)NCCOC)ccc1-2 ?
Lassa entry inh: -12%; MARV entry inh: inconclusive; 2A StopGo: 4%; NS1 inh: -4%; RE007 growth inh: 1%; SARS PLP yeast: -4%

Results for CCC(C)(C)n1nnnc1C(c1ccc2ncccc2c1)N1CCCC(C)C1 (stereo not given) ?
Lassa entry inh: 14%; Cruzain inh Det: -0.3%; MARV entry inh: inconclusive; 2A StopGo: 0%; Cruzain inh noDet: -3%; NS1 inh: -16%; RE007 growth inh: 10%; SARS PLP yeast: -10%

What do the screens show for `O=C(NCCCn1ccnc1)Nc1ccc(Cl)c(Cl)c1`?
Lassa entry inh: 0%; Cruzain inh Det: -17%; MARV entry inh: -4%; 2A StopGo: 3%; Cruzain inh noDet: -15%; NS1 inh: -36%; RE007 growth inh: 2%[3.69 µM]; SARS PLP yeast: 7%
